# Screens from PubChem.
# VDR inhibitor: Inhibitors of the vitamin D receptor (VDR): qHTS. Vitamin D3 receptor (Homo sapiens), P11473. Potency, µM, inactives show max response, negative = inhibition, most hits filed as inhibitors. 400,000 compounds, 0.93% hits. VDR-SRC2-3 peptide fluorescence polarization, 2 h. AID 504847, 2011; active means well fitted inhibition curve with a large enough effect; inconclusive means small, poorly fitted or top-dose-only effect, or another doubt; inactive means no such curve, though single readings can be large or run the other way; further: series mostly up to about 120 µM
# Target sequence (P11473 whole entry, looked up): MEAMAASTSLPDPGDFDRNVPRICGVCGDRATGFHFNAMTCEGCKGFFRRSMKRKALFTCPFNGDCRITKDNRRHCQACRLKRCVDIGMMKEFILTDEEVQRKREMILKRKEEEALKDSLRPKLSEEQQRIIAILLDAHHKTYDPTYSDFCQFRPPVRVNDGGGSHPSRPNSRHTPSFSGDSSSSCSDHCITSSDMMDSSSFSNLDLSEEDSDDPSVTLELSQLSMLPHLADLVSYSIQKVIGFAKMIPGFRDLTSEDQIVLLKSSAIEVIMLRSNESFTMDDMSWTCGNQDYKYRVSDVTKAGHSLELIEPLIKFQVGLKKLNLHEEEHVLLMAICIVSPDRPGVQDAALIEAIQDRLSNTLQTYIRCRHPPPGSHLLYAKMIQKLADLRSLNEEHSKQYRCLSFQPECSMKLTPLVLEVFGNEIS
#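 Reagent solutions, kept cold and dark, are dispensed first; compounds are then pinned in at 23 nl, plates briefly spun, and incubated 2 h at ambient temperature. Inhibition of VDR–SRC2-3 peptide binding is read by fluorescence polarization.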
# Active calls of the source: *; ? = inconclusive; & = joins results of further samples; ! = not confirmed by another sample; [ ] = dose if it differs, or a comment. On the % scale 0 is the no-effect control and ±100 the full control effect; potency means the concentration at half of the fitted maximal effect.
structure | VDR inhibitor
COc1ccc(-n2c(O)c(C(C)=NCCCn3ccnc3)c(=O)[nH]c2=O)cc1 | 2%
COc1ccccc1-n1c(CNCC2CCCO2)nc2ccccc2c1=O (stereo not drawn) | 3%
COC(=O)C1=C(c2ccc(-c3ccccc3)c(F)c2)C[C@@H]2CC[C@H]1N2C(=O)N1CCCC1 | ?
OCCN1C2CCC1CC(O)(c1ccc(F)cc1)C2 (stereo not drawn) | -16%
Cc1ccccc1OP(N)(=O)Oc1ccccc1C | -6%
CCCCN1C(=O)NC(=O)C2(Cc3cc(C)ccc3N(C)C2)C1=O (stereo not drawn) | -10%
COc1ccc(OC)c(NC2=NCCS2)c1 | 0%
Cc1c(N=Nc2c(O)n(-c3ccc(Br)cc3)c(=O)[nH]c2=O)c(=O)n(-c2ccccc2)n1C | 13%
Cc1cccn2c(=O)c3c(nc12)N1CCc2ccccc2C1C1(C3)C(=O)NC(=O)N(C)C1=O (stereo not drawn) | 5%
COc1ccc(CCNCc2ccccn2)cc1OC | -3%
COc1ccc(CC(=O)N2CCN(C)CC2)cc1 | 21%
CC(=NCCCn1ccnc1)c1c(O)n(C)c(=O)n(C)c1=O | 11%
CN(C(=O)Cc1ccc2c(c1)OCO2)C1CCCN(Cc2ccccc2F)C1 (stereo not drawn) | -7%
Fc1ccc(CNCCc2c[nH]c3ccccc23)cc1 | -5%
COc1ccc(Cn2c(O)c(C=NCCCn3ccnc3)c(=O)[nH]c2=O)cc1 | -11%
COc1cc(/C=C2\C(=O)NC(=O)N(c3ccccc3)C2=O)cc(OC)c1O | 3%
O=C(CCN1CC1)OCCOC(=O)CCN1CC1 | 4%
CCn1ccnc1CN1CCCC(C(=O)c2cccc(C(F)(F)F)c2)C1 (stereo not drawn) | -1%
CC(=NCCCN1CCOCC1)c1c(O)n(-c2ccccc2C)c(=O)[nH]c1=O | 20%
CC(=O)N1CCN(CCN=Cc2c(O)n(-c3ccc(C)cc3)c(=S)[nH]c2=O)CC1 | -5%
COc1cccc(-c2nn3c(=O)cc(CN4CCN(C(=O)COc5ccccc5C)CC4)nc3s2)c1 | 0%
Cc1cccc(N2C(=O)/C(=C/N3CCN(C(=O)c4ccco4)CC3)C(=O)NC2=S)c1 | 16%
CCC(=O)OC1CCC2C3CCC4CC(=O)C=CC4(C)C3CCC12C (stereo not drawn) | 50µM*
O=C1/C(=C\c2cc3c(cc2Br)OCO3)N2CCC1CC2 | -3%
O=C(Cn1nc(-c2ccccc2)ccc1=O)N1CCC2(CC1)OCCO2 | 0%
O=C(C1CC(c2ccccc2O)=NO1)N1CCC2(CC1)OCCO2 (stereo not drawn) | -3%
CCOc1ccc(CNCCc2ccc3c(c2)OCO3)cc1 | 3%
Cc1cc(OC(=O)c2ccco2)c2c3c(c(=O)oc2c1)CCCC3 | 5%
CC(=NCCCn1ccnc1)c1c(O)n(C2CCCCC2)c(=O)[nH]c1=O | 1%
O=C(c1ccc2c(c1)OCO2)C1CCCN(Cc2ccccn2)C1 (stereo not drawn) | -3%
Cc1ccc(OCCOc2cccc(C=C3C(=O)NC(=O)NC3=O)c2)cc1 | 40µM*
O=C1NC(=O)C(=Cc2ccc(N3CCOCC3)cc2)C(=O)N1 | 26%
C=CC[N+]1(C)CC[C@]23c4c5ccc(O)c4O[C@H]2C(=O)CC[C@@]3(O)[C@H]1C5 (stereo partly drawn) | -6%
CN1CCCCC1c1cccnc1 (stereo not drawn) | 1%
O=C(O)COc1ccccc1 | -10%&1%
COC(=O)C1=C(c2ccc(F)cc2OCc2ccccc2)C[C@@H]2CC[C@H]1N2C(=O)NC1Cc2ccccc2C1 | -21%
CCC12C=CCN3CCC4(c5ccc(OC)cc5N(C)C4[C@@](O)(C(=O)OC)C1OC(C)=O)C32 (stereo partly drawn) | 10%
O=C(Cn1ncn2c(cc3cc(F)ccc32)c1=O)N1CCC2(CC1)OCCO2 | 10%
C=CCn1c(=O)c(C=Nc2cccnc2Cl)c(O)n(CCCC)c1=O | -10%
CCOC(=O)C(NC(=O)C(Cc1ccc(N(CCCl)CCCl)cc1)NC(C)=O)C(C)C (stereo not drawn) | -2%
CCN1C[C@]2(COC(=O)c3ccccc3N3C(=O)CC(C)C3=O)CC[C@H](OC)[C@@]34C5C[C@@H]6[C@@H](OC)C[C@@](O)(C5[C@H]6OC)[C@](O)([C@@H](OC)C23)[C@@H]14 (stereo partly drawn) | 2%
COc1ccc(CN2C(=O)NC(=O)/C(=C\c3cc(OC)c(OC)c(OC)c3)C2=O)cc1 | 50µM*
CSCCC(N=Cc1c(O)n(-c2ccc(Br)cc2)c(=O)[nH]c1=O)C(=O)OC(C)(C)C (stereo not drawn) | -3%
O=P(C(Cl)Cl)(N1CCOCC1)N1CCOCC1 | -13%
Cc1ccc(OP(=O)(Nc2cccc(C)c2)Oc2ccc(C)cc2)cc1 | -6%
CC[C@]12C=CCN3CC[C@@]4(c5ccc(OC)cc5N(C)[C@H]4[C@@](O)(C(=O)OC)[C@@H]1OC(C)=O)C32 (stereo partly drawn) | -3%
COc1ccc(OC)c(N2C(=O)/C(=C/c3ccco3)C(=O)NC2=S)c1 | ?
O=C(CCNS(=O)(=O)c1ccccc1)Nc1ccc(Cl)cc1C(=O)c1ccccc1 | -20%
CCN1CCC2(CCNC2)C1 (stereo not drawn) | 7%
C=CCN1C(=O)/C(=C/c2cc(C)n(-c3cccnc3)c2C)C(=O)NC1=S | -6%
CC(C)C[C@H]1C(=O)N2CCCC2[C@]2(O)O[C@](NC(=O)[C@@H]3C=C4c5cccc6[nH]cc(c56)CC4N(C)C3)(C(C)C)C(=O)N12 (stereo partly drawn) | -10%
CCOP(=O)(OCC)C(O)c1cccc([N+](=O)[O-])c1 (stereo not drawn) | 35%[activator]
CN(C)C1(CNC(=O)Nc2ccc(Cl)c(Cl)c2)CCCCC1 | -8%
C#Cc1cccc2c1c(C(=O)c1ccc(Cn3c(C)nc4cnccc43)c(F)c1)cn2C(=O)N(C)C | 7%
CCCCCCCCCCCCCCC[C@@H](O)[C@@H](N)COP(=O)(O)O | -4%
COC(=O)C1=C(c2cccc(OCc3ccccc3)c2)C[C@@H]2CC[C@H]1N2C(=O)NCc1ccccc1 | -19%
CC(=NCCC(c1ccccc1)c1ccccc1)c1c(O)n(C)c(=O)n(C)c1=O | 1%
O[C@@H]1CCCC[C@H]1N1CCC(c2ccccc2)CC1 | -16%
CCOc1cc(C2NCc3ccccc3-n3cccc32)ccc1OC (stereo not drawn) | 24%
COC(=O)C1=C(c2cccc(OCc3ccccc3)c2)C[C@@H]2CC[C@H]1N2C(=O)NCCOc1ccc(OC)cc1 | -7%

# Continued:
structure | VDR inhibitor
CCOC(=O)C1(CCc2ccccc2)CCN(C2CCSCC2)CC1 | -16%
CN1CCCN(C(=O)COc2ccccc2)CC1 | 9%
Cc1cccc(OP(=O)(Nc2cccnc2)Oc2cccc(C)c2)c1 | 10%
c1ccc(CCNC2CCCCCC2)cc1 | 9%
O=C(Oc1ccccc1)N1CCC[C@@]2(CCN(Cc3nccs3)C2)C1 | -14%
Cc1cc(C=O)c(C)n1C1CC1 | -9%
CCN(CC)C(=O)c1ccc(NC(=O)COc2ccccc2F)cc1 | -20%
CN[C@@H]1C[C@H]2O[C@@](C)([C@@H]1OC)n1c3ccccc3c3c4c(c5c6ccccc6n2c5c31)C(=O)NC4 | -2%&2%
COc1ccc2[nH]cc(C(=O)CN(C)C)c2c1 | -22%
COC(=O)C1=C(c2ccc(F)cc2OCc2ccccc2)C[C@@H]2CC[C@H]1N2C(=O)NCc1ccccc1Br | -12%
COc1ccc2c(c1)C(c1ccc(N(CCCl)CCCl)cc1)=NCC2 | 7%
O=C1CN=C(c2ccc(Cl)cc2)c2oc3ccccc3c2N1 | 1%
N#Cc1cc2c(nc1SCC(=O)Nc1ccc(OC(F)(F)F)cc1)C1CCN2CC1 | -7%
Nc1ccccc1C(=O)OCCOc1ccccc1 | 1%
COc1cc(C2c3cc4c(c(O)c3CC3COC(=O)C32)OCO4)cc(OC)c1OC (stereo not drawn) | -1%&-4%&7%
COc1ccc(CN2Cc3cnnn3-c3ccccc3C2C)cc1 (stereo not drawn) | -2%
O=C(c1cccc(Cl)c1)C1CCCN(Cc2cccc3cnccc23)C1 (stereo not drawn) | 2%
C=CCN1C(=O)/C(=C/c2ccc3c(c2)CCCN3CCC)C(=O)NC1=S | ?
CCCN1CCc2cc(O)cc3c2[C@H]1Cc1ccc(O)c(O)c1-3 | 5µM*!
Cc1cccc(-n2c(O)c(/C=N/Nc3nc4c(c(=O)n(C)c(=O)n4C)n3C)c(=O)[nH]c2=S)c1 | -1%

# Structures above containing a furan ring, fused or not, in the order listed:
structure | VDR inhibitor
Cc1cccc(N2C(=O)/C(=C/N3CCN(C(=O)c4ccco4)CC3)C(=O)NC2=S)c1 | 16%
Cc1cc(OC(=O)c2ccco2)c2c3c(c(=O)oc2c1)CCCC3 | 5%
COc1ccc(OC)c(N2C(=O)/C(=C/c3ccco3)C(=O)NC2=S)c1 | ?
O=C1CN=C(c2ccc(Cl)cc2)c2oc3ccccc3c2N1 | 1%

# Remaining list, next part.
structure | VDR inhibitor
O=C1NC(=O)N(c2ccc3c(c2)OCO3)C(=O)/C1=C\c1ccsc1 | ?
O=P(Oc1ccccc1)(Oc1ccccc1)C(O)c1ccccc1 (stereo not drawn) | -5%
O=c1[nH]c(=O)n(Cc2ccc(F)cc2)c(O)c1C=NCCCO | -1%
C=C(c1ccccc1)P(=O)(O)O | -6%
O=C1OC(c2ccc(O)c(S(=O)(=O)O)c2)(c2ccc(O)c(S(=O)(=O)O)c2)c2c(Br)c(Br)c(Br)c(Br)c21 | 35µM*
C=CCn1c(O)c(/C=N/NC(=O)CCCC)c(=O)[nH]c1=S | 6%
CCOC(=O)N(C)C(=O)CSP(=S)(OCC)OCC | 50µM*
O=c1[nH]c(=S)n(-c2ccccc2)c(O)c1C=NCc1ccccn1 | 9%
S=P(Nn1cnnc1)(c1ccccc1)c1ccccc1 | -7%
CCC(=O)N1c2ccc(S(=O)(=O)CCC(=O)N3CCC4(CC3)OCCO4)cc2CC1C (stereo not drawn) | -1%
C[C@@H](NC(=O)[C@@H](N)Cc1ccc(O)cc1)C(=O)NCC(=O)N(C)[C@@H](Cc1ccccc1)C(=O)NCCO | 13%
CCN1CCN(c2cc(N3CCCC3)c([N+](=O)[O-])cc2F)CC1 | -5%
CCN1C(=O)NC(=O)/C(=C\c2cn(CC(=O)N3CCCCC3C)c3ccccc23)C1=O (stereo not drawn) | 2%
Cc1ccc(C2=NCC(=O)Nc3ccc(Br)cc32)cc1 | -9%
O=P(C(c1c[nH]c2ccccc12)N1CCOCC1)(N1CCOCC1)N1CCOCC1 (stereo not drawn) | -1%
O=[N+]([O-])c1ccc(N2CCNCC2)cc1NCc1ccco1 | -6%
OCC(Cl)CCl (stereo not drawn) | -1%
COc1cc(OC)cc(C(=O)Nc2ccc(Cl)cc2C(=O)c2ccccc2Cl)c1 | -6%
CCCCn1c(=O)c(C(=O)Nc2cccc(C)c2)c(O)c2ccccc21 | 0%
C=Cn1ccnc1P(=S)(c1nccn1C=C)c1nccn1C=C | 25%

# Exported with each value named: two of the compounds above
> CCN1CCN(c2cc(N3CCCC3)c([N+](=O)[O-])cc2F)CC1
  VDR inhibitor = -5%
> C=Cn1ccnc1P(=S)(c1nccn1C=C)c1nccn1C=C
  VDR inhibitor = 25%

# More records
structure | VDR inhibitor
COC(=O)C(O)C(O)(CCC(C)C)C(=O)OC1C(OC)=CC23CCCN2CCc2cc4c(cc2C13)OCO4 (stereo not drawn) | 4%
COC(=O)C1=C(c2ccc(C(C)=O)cc2)C[C@@H]2CC[C@H]1N2C(=O)N1CCC(O)CC1 | 8%
CC(=NCc1ccco1)c1c(O)n(Cc2ccccc2)c(=O)[nH]c1=O | -1%
CCN(CC)c1ccc(N=Cc2c(O)n(Cc3ccco3)c(=O)[nH]c2=O)cc1 | -25%
O=C1NC(=O)C(CCc2ccccn2)(Cc2cccc(Cl)c2Cl)C(=O)N1c1ccc(Br)cc1 (stereo not drawn) | -5%
O=C(O)CN1C(=O)CN=C(c2ccccn2)c2cc(Cl)ccc21 | 10%
N#Cc1ccc(C(=O)N2Cc3cnnn3-c3ccccc3C2C#N)cc1 (stereo not drawn) | 0%
O=c1[nH]c(=S)n(-c2ccc(Cl)cc2)c(O)c1C=Nc1ccc(N2CCOCC2)cc1 | -19%
COC(=O)C1=C(c2ccc(S(C)(=O)=O)cc2)C[C@@H]2CC[C@H]1N2C(=O)NCCS(C)=O (stereo partly drawn) | 2%
CC(N)C(=O)OC(C)(C)Cc1ccc(Cl)cc1 (stereo not drawn) | 6%&4%&7%
C=C1C(=O)O[C@H]2[C@H]1[C@H](OC(=O)CC(=O)O[C@@H]1C[C@@H](C)[C@@H]3C=CC(=O)[C@@]3(C)[C@H]3OC(=O)C(=C)[C@H]13)C[C@@H](C)[C@H]1C=CC(=O)[C@]12C | ?
O=[N+]([O-])c1ccc(Cl)c(Cl)c1Cl | 1%
CN1C(=O)C2C[C@@]3(Br)c4ccccc4N(OOSc4ccccc4)[C@H]3N2C(=O)[C@@H]1Cc1ccccc1 (stereo partly drawn) | -4%
CCOc1ccc(NC2=NCCCS2)cc1 | 9%
C=C(COC(C)=O)CC1CC(O)[C@]2(C)OC3CC4OC5C[C@]6(C)O[C@]7(C)CCC8OC9C[C@]%10(C)OC%11C(C)=CC(=O)OC%11CC%10OC9C[C@@H](C)C8OC7CC6O[C@]5(C)C/C=C\C4OC3CC2O1 (stereo partly drawn) | -13%
O=C(NC12CC3CC(CC(C3)C1)C2)OC1CN2CCC1CC2 (stereo not drawn) | -10%
Cc1ccc(O)c(CN2CCC3CCC(C3)C2)c1 (stereo not drawn) | -6%

# Some of the compounds tested; count on the stated rates, not on these rows.
